Source: PubChem BioAssay
SMN2 splice enh: enhancers of SMN2 splice variant expression; HEK293 SMN2-luciferase splicing reporter, luminescence, 30-36 h; Potency, µM (highest dose often 46.1 µM), for the others: at the highest dose activity change, positive = activation, most hits filed as activators; actives 2.8% (n = 210,000); further: % of control where 0% means no effect; nearly all actives have a fitted effect of over 55% in size
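qHTS luciferase splicing reporter: luminescence rises when SMN2 exon 7 is included in transfected HEK293 cells. Compound exposure lasted 30-36 h at 37C, with 4.5 mM final sodium butyrate as control, followed by a ONE-Glo read.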
RGS12 GoLoco inh: blocks human Gai1 binding to RGS12 GoLoco peptide, red readout | Gai1:RGS12 GoLoco peptide FP, rhodamine, 10 min | Potency, µM (titrated, usually from 61.6 µM), for inactives: at the top dose activity, negative = inhibition, most hits filed as inhibitors | actives 0.44% (n = 230,000) | AID 880; active means well fitted inhibition curve with a large enough effect, not every such curve was filed as active; inactive means no such curve, though single readings can be large or run the other way; further: on the % scale 0 is the no-effect control and ±100 the full control effect; nearly all actives have a fitted effect of over 30% in size; many of its hits are not listed in these tables
Target sequence (P63096 whole entry, looked up): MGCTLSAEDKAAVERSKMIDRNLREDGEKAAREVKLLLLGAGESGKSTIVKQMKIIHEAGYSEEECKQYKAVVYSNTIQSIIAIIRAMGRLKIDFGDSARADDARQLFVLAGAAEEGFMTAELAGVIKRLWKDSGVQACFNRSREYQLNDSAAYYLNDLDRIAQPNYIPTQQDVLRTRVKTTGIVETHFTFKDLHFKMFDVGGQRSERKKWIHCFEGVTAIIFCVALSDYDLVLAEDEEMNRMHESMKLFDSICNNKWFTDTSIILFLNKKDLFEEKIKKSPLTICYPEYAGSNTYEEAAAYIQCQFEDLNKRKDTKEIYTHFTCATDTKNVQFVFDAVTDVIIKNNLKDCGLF
Lamin A splicing: changes lamin A minigene splicing in HeLa cells; AID 1487; actives 0.01% (n = 200,000); Potency, µM (top dose mostly 46.1 µM), for inactives: top-dose ratio change, negative = inhibition, usual class: inhibitors; HeLa LMNA splicing GFP/RFP minigene ratio, 48 h; active means well fitted inhibition curve with a large enough effect in the signal ratio, with a control signal flat, not every such curve was filed as active; inconclusive means small, poorly fitted or top-dose-only effect, or effect the other way, or a change in a side signal; the % refers to the signal ratio; further: on the % scale 0 is the no-effect control and ±100 the full control effect
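Read-out is the ratio of GFP to DsRed2 object intensity, acquired by 488 nm laser-scanning cytometry on HeLa lamin A-EGFP minigene reporter cells. Compound incubation 48 hrs at 37 °C in Opti-MEM with 2% FBS; DMSO 0.5% final.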
RECQ1 helicase: inhibitors of human RECQ1 DNA helicase | P46063 | RECQ1 DNA unwinding, red fluorescence kinetic read | Potency, µM (top dose mostly 57.3 µM), for inactives: at the highest dose activity, negative = inhibition, usual class: inhibitors | actives 0.54% (n = 240,000) | AID 2549;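 further: plate controls were vehicle for no effect and no enzyme for full effect; nearly all actives have a fitted effect of over 30% in size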
Target sequence (P46063 whole entry, looked up): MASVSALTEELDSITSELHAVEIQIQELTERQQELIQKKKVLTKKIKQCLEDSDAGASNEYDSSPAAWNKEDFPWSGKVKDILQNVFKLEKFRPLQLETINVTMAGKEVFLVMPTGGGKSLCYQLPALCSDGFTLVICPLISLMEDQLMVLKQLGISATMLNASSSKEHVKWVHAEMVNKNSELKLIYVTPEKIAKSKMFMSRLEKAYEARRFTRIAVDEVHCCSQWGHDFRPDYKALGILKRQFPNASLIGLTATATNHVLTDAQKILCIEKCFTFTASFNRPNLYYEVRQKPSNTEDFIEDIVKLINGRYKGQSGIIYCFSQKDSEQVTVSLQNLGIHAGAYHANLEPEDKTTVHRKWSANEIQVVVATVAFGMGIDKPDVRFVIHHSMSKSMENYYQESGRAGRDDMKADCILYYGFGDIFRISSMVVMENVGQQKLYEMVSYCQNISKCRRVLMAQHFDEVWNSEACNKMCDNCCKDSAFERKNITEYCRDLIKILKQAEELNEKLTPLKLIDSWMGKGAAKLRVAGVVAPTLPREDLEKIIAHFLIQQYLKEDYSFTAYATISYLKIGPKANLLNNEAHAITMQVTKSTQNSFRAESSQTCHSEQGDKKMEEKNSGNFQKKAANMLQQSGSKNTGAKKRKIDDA
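50 nM RECQ1T1 preincubated 15 min with compound in Tris pH 8.0 buffer with MgCl2, DTT, Tween-20 and 2.5 ug/ml poly(dI-dC); started with 200 nM TAMRA/BHQ-2 forked duplex and 2 mM ATP. Unwinding read as fluorescence (525/598 nm), two reads 2 h apart.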
TR SRC2 fluor cs: counter-screen for TRb-SRC2 inhibitors: fluorescence interference; TRb/SRC2 Texas Red total fluorescence interference; Potency, µM (series often up to 106 µM), without a hit: at the top dose fluorescence change, negative = quenching; actives 0.29% (n = 280,000); active means well fitted curve in either direction with a large enough effect; inconclusive means small, poorly fitted or top-dose-only effect; further: on the % scale 0 is the no-effect control and ±100 the full control effect
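Flags fluorescent or light-absorbing compounds by total fluorescence, S + 2P, at 555 nm excitation and 632 nm emission. Mixture: 20 nM Texas Red SRC2 peptide, 0.6 uM human TRb LBD, 1 uM T3, 5% DMSO; compound exposure 5 h at ambient temperature.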
TRb-SRC2 inh: TRbeta-SRC2 interaction inhibition | P10828 | Potency, µM (highest dose often 106 µM), for the others: at the top dose activity change, negative = inhibition, hits mostly inhibitors | TRbeta-SRC2 peptide binding, fluorescence polarization; receptor liganded with 1 µM T3 | actives 0.065% (n = 280,000);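 further: plate controls were bound peptide for no effect and peptide without receptor for full effect; nearly all actives have a fitted effect of over 50% in size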
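Quantitative HTS by FP: 0.6 uM TRb LBD, 20 nM labeled SRC2 20-mer, 1 uM T3, 5% DMSO; 5 hr ambient incubation; % activity per concentration and potencies from concentration series.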
ALDH1A1 block: ALDH1A1 (human) enzyme inhibition | actives 7.3% (n = 220,000) | Purified ALDH1A1, NADH fluorescence, propionaldehyde substrate | AID 1030 | Potency, µM (titrated, usually from 75.3 µM), for the others: at the top dose activity, negative = inhibition, usual class: inhibitors | P00352; active means well fitted inhibition curve with a large enough effect, not every such curve was filed as active; inconclusive means small, poorly fitted or top-dose-only effect, or another doubt; inactive means no such curve, though single readings can be large or run the other way;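 further: plate controls were no enzyme wells and a reference inhibitor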
Active calls of the source: *; i = inactive; ? = inconclusive; . = no result given; [ ] = remark or other dose. Unless noted, the call rests on the fitted dose curve; in most records, active means well fitted curve in the direction sought with a large enough effect; inconclusive means small, poorly fitted or top-dose-only effect, or another doubt; inactive means no such curve, though single readings can be large; an effect the other way counts as inactive or inconclusive. Potency means the concentration at half of the fitted maximal effect. The list is partial, so the mix of outcomes need not match the whole.

SMILES | SMN2 splice enh | RGS12 GoLoco inh | Lamin A splicing | RECQ1 helicase | TR SRC2 fluor cs | TRb-SRC2 inh | ALDH1A1 block
CCCc1cc(=O)oc2cc(OCC(=O)N3CCc4ccccc43)ccc12 | 9% | 22% | 10% | i | 0% | -4% | ?
O=C(O)Cc1cn(-c2ccccc2)nc1-c1ccccc1 | 0% | -9% | -11%[46 µM] | -11% | -5% | -2% | ?
COc1ccccc1OCC(=O)Nc1cc(S(=O)(=O)N2CCCCC2)ccc1N1CCCCC1 | -32%[inhibitor] | 35%[activator] | ? | -6% | 3% | 3% | ?
N#Cc1cnc(SCC(=O)c2ccccc2)nc1N | 1% | 0% | 19% | -9% | -2% | -1% | -7%
CCCCN=Cc1c(C)[nH]n(-c2ccccc2)c1=S | -2% | -19% | . | -7% | -1% | -12% | 28µM*
Cc1nnc(N/N=C/c2ccc([N+](=O)[O-])cc2)n1N | -11% | 0% | ? | -1% | -2% | 5% | ?
CCc1ccc(N2C(=O)C3ON(c4ccccc4)C(c4ccco4)C3C2=O)cc1 (configuration not stated) | . | . | 1% | -6% | -2% | 3% | -8%
c1csc(C2Nc3ccccc3-c3nc4ccccc4n32)c1 (configuration not stated) | ? | 16% | ? | -2% | -9% | -3% | ?
COc1nc(N=C(N)N)nc2ccc(C)cc12 | . | . | -24% | -7% | 0% | 4% | ?
CCCc1nnc(-c2ccc(OC)cc2)o1 | -18% | 10% | 11% | -5% | -6% | 1% | 1%
NCc1ccccc1CC(=O)N[C@@H]1C(=O)N2C(C(=O)O)=C(CSc3nnnn3CC(=O)O)CS[C@@H]12 | -11%[20.6 µM] | 9%[21.6 µM] | ? | 1%[25.9 µM] | 1%[53 µM] | -2%[53 µM] | 5%[20.9 µM]
COc1cc(C2C3=C(CCCC3=O)Nc3c2c(C)nn3-c2cccc(C)c2)cc(OC)c1O (configuration not stated) | . | 7% | . | ? | -8% | 8% | .
COc1ccc(CN2CCN(CCCc3ccccc3)CC2)c(OC)c1 | -4% | -5% | 6%[46 µM] | -12% | -6% | -1% | ?
Cc1ccc(C)n1-c1ncc(Br)cn1 | -3% | 10% | ? | i | -2% | -7% | 3%
COc1ccc(-c2nc(NC(C)=O)sc2-c2ccc(OC)cc2)cc1 | -1% | 5% | ? | 10% | 0% | -4% | 3.2µM*
COc1ccc(NC(=S)NNC(=O)COc2ccc(Cl)cc2Cl)cc1 | -34%[inhibitor] | 2% | -2% | -3% | 11% | 7% | 7%
COc1ccc(OCC(=O)Nc2cccc(NC(=O)COc3ccc(OC)cc3)n2)cc1 | -11% | -4% | -2% | -3% | -4% | -1% | 0%
CCC(C)NCCOc1ccc(C)cc1[N+](=O)[O-] (configuration not stated) | . | -8% | 0%[46 µM] | -1% | -1% | 3% | ?
O=[N+]([O-])c1ccccc1S(=O)(=O)N1CCN(Cc2ccc3c(c2)OCO3)CC1 | 2% | 2% | 4%[46 µM] | -7% | -4% | 2% | ?
Cc1ccc(-n2[nH]c(C)c(/C=N/N3C(=O)c4cccc5cccc(c45)C3=O)c2=O)cc1 | . | 10% | ? | -8% | 1% | 2% | 5%
CCN(CC(=O)NCc1ccccc1Cl)CC(=O)Nc1c(F)cccc1F | . | 2% | . | -2% | -1% | -7% | .
Cc1cc(=O)oc2c(C(=O)c3ccccc3)c(OCC(N)=O)ccc12 | . | 5% | 19%[46 µM] | 1% | -4% | -2% | ?
CN(C)c1ccc(/C=N/NC(=O)c2nonc2N)cc1[N+](=O)[O-] | . | 3% | -4%[46 µM] | 18% | -18% | -1% | 2µM*
N#Cc1cc2c(nc1SCc1cccnc1)CCCC2 | -13% | -37% | ? | -3% | 0% | -6% | ?

The closing 4 compounds of the section above lead into the next.
SMILES | SMN2 splice enh | RGS12 GoLoco inh | Lamin A splicing | RECQ1 helicase | TR SRC2 fluor cs | TRb-SRC2 inh | ALDH1A1 block
CCN(CC(=O)NCc1ccccc1Cl)CC(=O)Nc1c(F)cccc1F | . | 2% | . | -2% | -1% | -7% | .
Cc1cc(=O)oc2c(C(=O)c3ccccc3)c(OCC(N)=O)ccc12 | . | 5% | 19%[46 µM] | 1% | -4% | -2% | ?
CN(C)c1ccc(/C=N/NC(=O)c2nonc2N)cc1[N+](=O)[O-] | . | 3% | -4%[46 µM] | 18% | -18% | -1% | 2µM*
N#Cc1cc2c(nc1SCc1cccnc1)CCCC2 | -13% | -37% | ? | -3% | 0% | -6% | ?
CCOC(=O)N1CCC(N2CCN(S(=O)(=O)c3ccc([N+](=O)[O-])cc3)CC2)CC1 | . | 1% | . | i | -2% | -14% | .
Cc1ccc(OCC(=O)N2CCN(C(=O)c3cccs3)CC2)cc1 | -4% | 0% | 2% | -2% | -6% | 4% | ?
COc1ccc(CC(=O)Nc2nn(C)c3nc4c(C)cccc4cc23)cc1 | . | 18% | . | -2% | -1% | 13% | .
CSc1nc(NCc2ccco2)c2c3c(sc2n1)CN(C)CC3 | -2% | 43% | 5% | -24% | -2% | 3% | 0%
CCOc1ccc(-c2csc3ncn(-c4ccc(OC)cc4)c(=O)c23)cc1 | . | 2% | 18%[46 µM] | 5% | 0% | 6% | -2%
Cc1nnc(C)n1/N=C/c1ccc(C(=O)O)cc1 | -3% | -2% | -5% | 9% | -5% | -20% | -1%
N=c1c2c(-c3ccccc3)c(-c3ccccc3)oc2ncn1CCN1CCOCC1 | -37%[inhibitor] | 5% | ? | 0% | 0% | -6% | ?
CCOc1ccccc1NC(=O)C(NCC1(N2CCCCC2)CCCCC1)c1ccccc1 (configuration not stated) | 0% | -17% | . | -1% | 3% | -12% | ?
CCN(CC)c1ccc(S(=O)(=O)N2CCOCC2)cc1NC(=O)CNCc1ccccc1 | . | 0% | . | -16% | 0% | 8% | ?
Cc1ccc(NNC(=O)Nc2ccc(Cl)cc2)nn1 | . | -10% | . | -1% | -4% | 1% | .
CC(C)CN(C(=O)CN1CCN(c2ccccc2O)CC1)c1c(N)n(CC(C)C)c(=O)[nH]c1=O | 9% | 5% | -2% | -9% | 2% | 4% | -9%
CCCCC(=O)NNC(=O)c1c(O)c2ccccc2[nH]c1=O | . | 4% | . | -9% | -2% | -7% | -10%
O=C(c1ccccc1)c1ccc(OCCCN2CCCC2)cc1 | 1% | 1% | 9% | 12% | -1% | -9% | -14%
Cc1ccc2c(c1)C(C)CC(C)(C)N2C(=O)CN1CCN(C)CC1 (configuration not stated) | . | -2% | . | -1% | 0% | -5% | .
O=C(Oc1ccc(N(C(=O)c2ccncc2)S(=O)(=O)c2cccs2)cc1)c1ccncc1 | . | 15% | -1%[46 µM] | -8% | 1%[53 µM] | 6%[53 µM] | -4%
Cc1ccc(C(C)C)c(OCC(O)CN2CCN(CCO)CC2)c1 (configuration not stated) | 28% | 4% | -8% | 0% | -4% | 2% | ?
CCN1CCN(CC(O)COC(c2ccccc2)c2ccccc2)CC1 (configuration not stated) | 10% | 9% | -4%[46 µM] | -8% | 6% | 3% | ?
Clc1ccc(SCCCCN2CCOCC2)cc1 | 14% | 0% | 3% | -2% | 0% | 3% | -1%
O=C(NNc1nc(-c2ccc(Br)cc2)cs1)c1ccco1 | -27% | 40%[activator] | ? | 16% | -1% | -6% | ?
CC(C)(C)c1ccc(-c2n[nH]c(=S)n2CC2CCCO2)cc1 (configuration not stated) | -11% | 6% | . | 17% | -2% | -5% | -9%
CCn1c(N)c(C(=O)NCc2ccco2)sc1=S | 4% | -25% | -3% | 19% | -2% | 10% | 14µM*
COCCN(C(=O)CC1C(=O)NCCN1Cc1ccc(-c2ccccc2)cc1)C(C)C (configuration not stated) | . | -4% | 5%[46 µM] | 0% | 2% | -7% | ?
O=C(NN1C(=O)c2ccccc2NC1c1ccoc1)c1ccccc1 (configuration not stated) | 18% | 5% | . | -9% | -2% | 1% | ?
C(=N\N1CCN(c2ccccn2)CC1)/C1=C(N2CCOCC2)C(=C/c2ccccc2)/CC1 | -16% | 13% | -13%[46 µM] | i | 1% | -2% | 8.9µM*
Cc1ccc2[nH]c(=O)c(CN(Cc3ccco3)C(=O)CN3CCCC(C)C3)cc2c1 (configuration not stated) | . | 13% | 17%[46 µM] | i | -1% | -2% | ?
CC(=O)c1sc(NC(=O)c2ccc(F)cc2)nc1-c1ccccc1 | ? | 1% | . | 3% | -2% | 3% | 12%
COc1ccc(CN2CCN(c3ccccn3)CC2)c(OC)c1C | . | -3% | . | i | -3% | -8% | ?
CCC(C)NCCOCCOc1ccc(Cl)cc1Br (configuration not stated) | -56%[inhibitor] | 2% | ? | i | -1% | 6% | -4%
CC1CCCN(C(=O)COc2ccc(-c3ccccc3)cc2)C1 (configuration not stated) | 14% | -1% | . | i | 2% | 0% | -4%
O=C(/C=C/c1ccco1)Nc1cccc2cccnc12 | ? | 27% | 2% | ? | -4% | 0% | -11%
CCC(C)Nc1nc2c(C)cccn2c(=O)c1C=Nc1ccc(OC)cc1 (configuration not stated) | 4% | 8% | . | i | -1% | 6% | -3%
CC(=O)Nc1ccc(N/C=C/C(=O)c2ccc(C)o2)cc1 | -10% | 5% | 1% | 0% | -1% | -1% | 0%
CC(C)(C)N1NC2(CCCCC2)NC1=S | 6% | 9% | 3%[46 µM] | -3% | 1% | 9% | ?
COc1ccccc1NC(=O)c1ccc(S(=O)(=O)N2CCCC2)cc1 | -20% | -2% | -1% | -9% | -4% | 3% | ?
Cc1nc2ccc(C(=O)O)cc2nc1C | -10%[1.84 µM] | -11% | 0% | 1% | 4% | -11% | 4%
CN(C)S(=O)(=O)c1cccc(NC(=O)CSc2nc3ccccc3n2-c2ccccc2)c1 | -39%[inhibitor] | 24% | ? | -6% | ? | -11% | ?
CCN(CC)CCOc1ccccc1C(C)=O | 13% | -86% | ? | i | -1% | -6% | ?
COc1ccccc1Oc1ncnc2c1cnn2-c1ccccc1 | 13µM* | -6% | . | i | 0% | 5% | 2%
O=C(CSCc1ccc(F)cc1)Nc1nc2c(s1)CCCC2 | -6% | 11% | ? | i | -5% | -10% | ?
CC(=O)Nc1ccc(S(=O)(=O)N2CCN(Cc3cccs3)CC2)cc1 | -25% | -2% | . | -1% | -3% | -3% | ?
COc1cc(C(=O)NNC(=S)NC(=O)c2ccc(F)cc2)cc(OC)c1OC | . | 7% | . | 28% | -2% | 7% | .
